# Screening data from PubChem.
# HSV augment = HSV replication enhancement; HSV replication augmentation in cells, fold increase; maximum fold increase; 220,000 compounds, 0.005% hits; AID 1956;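 active = peak rise of 1.5-fold or more in the series; tested in PC3 cells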;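 note: first round at 10 µM; read as green reporter fluorescence; hits show the peak of a series up to 25 µM; 1 = signal of infected wells without compound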
# Insulin prom inh = TRM-6 insulin promoter activity inhibition | inhibition, % at 2 µM | TRM-6 cells (human fetal islet line), insulin promoter-eGFP reporter, imaging; reporter expression induced with tamoxifen | 130,000 compounds, 0.9% hits;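 active = inhibition above the mean plus 3 SD, with well images judged a real hit on visual review, cut at about 60% in these data, passing the limit was not always enough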
# RGS16-Gao HTS = modulates binding between human RGS16 and Galphao | O15492+P09471 | bead-based flow cytometry RGS16-Galphao binding, fluorescence; actives lie on both sides | binding response (% of control), % at 10 µM | 220,000 compounds, 0.38% hits;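 active = below 25% or above 175%, edge rows of some plates excepted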;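 note: Galphao activated by GDP with aluminum fluoride before binding; 100% = wells without compound and 0% = beads without RGS; some results beyond the cut were filed as inactive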
# Target sequence (O15492 whole entry, looked up): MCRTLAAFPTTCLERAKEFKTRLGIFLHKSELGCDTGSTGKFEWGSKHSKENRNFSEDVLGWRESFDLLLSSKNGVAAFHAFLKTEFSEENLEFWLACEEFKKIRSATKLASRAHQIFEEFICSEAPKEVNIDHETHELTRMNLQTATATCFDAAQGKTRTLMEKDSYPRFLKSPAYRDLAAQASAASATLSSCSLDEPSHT
# Target sequence (P09471 whole entry, looked up): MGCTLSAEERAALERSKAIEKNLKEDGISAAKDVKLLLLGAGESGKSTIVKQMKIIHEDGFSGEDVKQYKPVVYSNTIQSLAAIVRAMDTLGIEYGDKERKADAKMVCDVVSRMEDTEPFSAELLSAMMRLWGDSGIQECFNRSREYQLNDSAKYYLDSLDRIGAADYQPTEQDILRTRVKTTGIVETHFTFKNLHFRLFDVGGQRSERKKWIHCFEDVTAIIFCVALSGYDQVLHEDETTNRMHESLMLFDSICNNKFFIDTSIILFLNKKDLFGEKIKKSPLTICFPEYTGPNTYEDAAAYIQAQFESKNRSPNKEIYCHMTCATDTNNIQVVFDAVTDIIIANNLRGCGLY
# GALR2 agonist = GALR2 (human) receptor agonism. GALR2-expressing cells, agonist activation read-out. activation, %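 (tested at 5 µM)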. 140,000 compounds, 0.48% hits;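 active = above mean plus 3 SD of all compounds, about 5% in these data, not always enough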;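 note: 0% = vehicle buffer wells and 100% = reference agonist at full effect; tested in CHO reporter cells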
# Target sequence (O43603 whole entry, looked up): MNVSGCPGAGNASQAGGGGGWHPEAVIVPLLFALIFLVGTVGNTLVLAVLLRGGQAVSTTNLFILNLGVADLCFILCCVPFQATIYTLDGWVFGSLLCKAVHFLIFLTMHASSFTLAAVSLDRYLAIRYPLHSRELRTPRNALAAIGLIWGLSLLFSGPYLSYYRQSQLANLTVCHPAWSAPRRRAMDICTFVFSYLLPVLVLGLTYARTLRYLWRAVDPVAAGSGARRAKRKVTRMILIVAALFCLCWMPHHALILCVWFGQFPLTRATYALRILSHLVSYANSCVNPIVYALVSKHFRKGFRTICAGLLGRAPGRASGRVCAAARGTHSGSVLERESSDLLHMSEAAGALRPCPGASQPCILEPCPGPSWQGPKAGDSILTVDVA
# PKD1 inh = PKD1 (human) kinase inhibition. inhibition, %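 (about 10 µM by stock and volumes)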. Q15139. 200,000 compounds, 0.056% hits. PKD1 kinase fluorescence polarization assay. AID 797;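 active = inhibition of 50% or more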;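 note: controls were vehicle for no effect and a reference inhibitor for full effect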
# Insulin prom inh cell count = second read-out of Insulin prom inh, no call of its own (marks repeat the call); normalized cell count, %; measured here: cell count, toxicity; reference of the scale not given here;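 cells exposed to compound for 48 h; stained nuclei by imaging scaled within each plate; lower means fewer cells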
# HSV augment primary fold = further read-out of HSV augment, marked with its call; fold increase; compound at 10 µM; measured here: primary screen fold increase 10 uM; tested in PC3 cells;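 GFP signal in the first replicate; 1 = infected wells without compound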
# Active calls of the source: *; i = inactive; · = no result given.
item | molecule | HSV augment | HSV augment primary fold | Insulin prom inh | Insulin prom inh cell count
1 | CC12CCC(C(=O)N3CCN(C(=O)C45CCC(C)(C(=O)O4)C5(C)C)CC3)(OC1=O)C2(C)C | · | · | -16 | 92
2 | COC(=O)c1onc(C(=O)c2ccccc2)c1C(=O)OC | i | 1.1 | 38 | 132
3 | COc1ccc(/C(C#N)=C/c2cccnc2)cc1 | i | 0.82 | · | ·
4 | COc1ccc(NC(=O)N(Cc2cccs2)Cc2cc3cc4c(cc3[nH]c2=O)OCO4)cc1 | i | 0.99 | 21 | 63
5 | O=C(CSc1ccc(Cl)cc1)N/N=C/c1cccnc1 | i | 0.96 | -33 | 66
6 | CC(=O)N1CCN(C(=O)CCc2nnc(CCCCc3ccccc3)o2)CC1 | i | 0.93 | -19 | 109
7 | CCOC(=O)N1CCN(C(c2ccc(C(C)C)cc2)c2sc3nc(C)nn3c2O)CC1 (configuration not stated) | i | 0.83 | 50 | 86
8 | CCOc1ccccc1-n1c(SCC(N)=O)nnc1-c1cccnc1 | i | 1.1 | 12 | 124
9 | O=C(O)c1ccc(NC(=O)C2CCCCC2)cc1 | i | 0.96 | -5 | 84
10 | CCOC(=O)N1CCC(n2c(SCC(=O)OCc3ccccc3)nc3ccsc3c2=O)CC1 | i | 1.1 | -18 | 201
11 | O=C1CCCN2N=C(SCC(=O)Nc3nccs3)SC2=N1 | i | 1 | 37 | 104
12 | CC(=O)c1sc2nsc(SCCN3CCOCC3)c2c1N | i | 1.1 | · | ·

item | RGS16-Gao HTS | GALR2 agonist | PKD1 inh
1 | · | -1.2 | -6
2 | 100 | -1.8 | -3
3 | 96 | · | ·
4 | 100 | 0.9 | 1
5 | 61 | · | -5
6 | 103 | · | -3
7 | 99 | -2.2 | -6
8 | 96 | -1.8 | 0
9 | 108 | -1.6 | 5
10 | 101 | 0.1 | -6
11 | 101 | · | 1
12 | 89 | · | ·

# Compound profiles (already shown). Order of screens: HSV augment	HSV augment primary fold	Insulin prom inh	Insulin prom inh cell count	RGS16-Gao HTS	GALR2 agonist	PKD1 inh
# Shown for CC(=O)c1sc2nsc(SCCN3CCOCC3)c2c1N : i	1.1	·	·	89	·	·
# Shown for CCOC(=O)N1CCN(C(c2ccc(C(C)C)cc2)c2sc3nc(C)nn3c2O)CC1 (configuration not stated) : i	0.83	50	86	99	-2.2	-6

# The list continues.
item | molecule | HSV augment | HSV augment primary fold | Insulin prom inh | Insulin prom inh cell count
13 | COc1cc(S(=O)(=O)NCCCN2CCOCC2)ccc1-n1cnnn1 | i | 0.84 | · | ·
14 | O=C(C1CC(c2ccc(F)cc2)=NO1)N1CCc2ccccc2C1 (configuration not stated) | i | 1.3 | · | ·
15 | CCCNc1nc(Cl)nc(NCc2cccnc2)n1 | i | 0.95 | · | ·
16 | Cc1nc2ccc(S(=O)(=O)NCC(=O)NCCN3CCCCC3C)cc2s1 (configuration not stated) | i | 1 | -91 | 109
17 | CC(C)n1ncc(C(N)=O)c1N | i | 1.1 | 43 | 108
18 | CCN(CCN(C)C)C(=O)c1ccc2c(c1NCCO)C(=O)c1ccccc1C2=O | i | 0.8 | · | ·
19 | Cn1ccc(=Nc2ccc(NC(=O)c3ccc(N=c4ccn(C)c5ccc([N+](=O)[O-])cc45)cc3)cc2)cc1 | i | 0.64 | · | ·
20 | CC(Sc1ncnc2ccccc12)C(=O)Nc1ccc2c(c1)OCO2 (configuration not stated) | i | 1 | -5 | 96
21 | COCC(=O)NC1CCN(C(=O)Nc2ccc(Br)cc2)CC1 | i | 1.2 | 30 | 100
22 | CCc1nnc(NC(=O)CSc2nnc(-c3ccco3)n2C)s1 | i | 0.83 | -21 | 126
23 | O=[N+]([O-])c1ccc(N2CCCCC2)cn1 | i | 1.1 | 6 | 108
24 | CC1CCN(c2nc(-c3ccco3)c3c(c2C#N)CC(C)(C)OC3)CC1 | i | 1 | 29 | 101

item | RGS16-Gao HTS | GALR2 agonist | PKD1 inh
13 | 100 | · | -1
14 | 101 | -1.7 | -3
15 | 101 | · | ·
16 | 110 | -0.8 | 8
17 | 95 | 0.4 | 1
18 | 105 | · | -3
19 | 101 | · | ·
20 | · | -1.0 | 9
21 | 102 | -1.8 | -13
22 | 111 | -0.7 | -3
23 | 100 | · | -2
24 | 98 | -0.1 | 2

# Other entries follow.
item | molecule | HSV augment | HSV augment primary fold | Insulin prom inh | Insulin prom inh cell count
25 | Cc1cnn(CCC(=O)NNC(=S)Nc2ccc(F)cc2)c1 | i | 0.94 | · | ·
26 | COc1ccccc1NC(=S)N(CCCN1CCOCC1)Cc1ccccn1 | i | 0.96 | 12 | 95
27 | N#Cc1cccc(NC(=O)CCn2ccnc2)c1 | i | 1.1 | -29 | 87
28 | Cn1cccc1C1(C(F)(F)F)NCCNC1=O (configuration not stated) | i | 1 | -181 | 59
29 | Cc1ccc(NC(=O)/C(=C/c2cccc(Br)c2)NC(=O)c2ccco2)cc1 | i | 0.95 | 12 | 88
30 | O=C(O)c1ccccc1NCc1ccncc1 | i | 1 | · | ·
31 | CC(C)N1CCC(=NNc2ccc([N+](=O)[O-])cc2S(=O)(=O)N2CCOCC2)CC1 | i | 0.95 | · | ·
32 | Cc1ccc2oc(-c3cccc(NC(=O)/C=C/c4cccc([N+](=O)[O-])c4)c3C)nc2c1 | i | 1 | · | ·
33 | CC(=O)c1cccc(NC(=O)N2CCCC2C(=O)NCc2ccc(F)cc2)c1 (configuration not stated) | i | 0.99 | · | ·
34 | Cc1nc2c(c(=O)c3ccccc3n2C)c(=O)n1C1CCCCCC1 | i | 0.86 | · | ·
35 | CCOC(=O)C1CCCN(C(=O)c2ccc(C)cc2O)C1 (configuration not stated) | i | 0.71 | · | ·
36 | COc1cc(C(=O)Nc2ccc(S(=O)(=O)N3CCc4ccccc43)cc2)cc(OC)c1OC | i | 0.89 | 46 | 87

item | RGS16-Gao HTS | GALR2 agonist | PKD1 inh
25 | 93 | -2.0 | -3
26 | 97 | 0.5 | -8
27 | 100 | -0.4 | 2
28 | 100 | -2.3 | -4
29 | 105 | -0.9 | -18
30 | 102 | -1.2 | -3
31 | 101 | · | 0
32 | 151 | -0.7 | 0
33 | 107 | -2.1 | -5
34 | 106 | · | ·
35 | 100 | -1.7 | -10
36 | 97 | -1.1 | -5

# Remaining list, next part.
item | molecule | HSV augment | HSV augment primary fold | Insulin prom inh | Insulin prom inh cell count
37 | CC(C)OCCCNC(=O)c1cccs1 | i | 0.96 | 34 | 183
38 | Cc1cc(C)cc(Nc2ncnc3nc[nH]c23)c1 | i | 0.72 | · | ·
39 | Cc1n[nH]c(=S)c2nn(-c3cccc(Cl)c3)c(C)c12 | · | · | · | ·
40 | CCOc1ccc(C(=O)Nc2cc(C)on2)cc1OCC | i | 0.97 | 69 | 123
41 | Oc1ccc(C[C@@H]2CNC(=S)N2CCCCC2CCCCC2)cc1 | i | 0.83 | · | ·
42 | N#Cc1c(C(F)(F)F)cc(C2CC2)[nH]c1=O | i | 0.87 | 0 | 150
43 | O=C(OCN1C(=O)c2ccccc2C1=O)c1cccs1 | i | 0.87 | -223 | 29
44 | COC(=O)CCC(=O)OC1(C)C(=O)C=C2C=C(C3CC3)N(C3CCCC3)C=C2C1=O (configuration not stated) | i | 0.85 | · | ·
45 | COC(=O)[C@H](CCSC)NC(=O)NCc1ccccn1 | i | 1 | 43 | 96
46 | COc1ccc(C(=O)/C=C/Nc2ccc([N+](=O)[O-])cc2C)cc1OC | i | 1.1 | 9 | 97
47 | CCCCSc1nc(C)cc(C)c1S(=O)(=O)c1ccccc1C | i | 1 | 14 | 123
48 | C#CCOCCOCCOCCNc1nc(N2CCN(C(=O)[C@H](CCC(=O)O)n3cc(C(N)Cc4ccc(O)cc4)nn3)CC2)nc(N2CCN(C(=O)[C@H](Cc3cc4ccccc4[nH]3)n3cc(C(N)CC(C)C)nn3)CC2)n1 (some centres not stated) | · | · | · | ·

item | RGS16-Gao HTS | GALR2 agonist | PKD1 inh
37 | 97 | 0.5 | -7
38 | 103 | · | ·
39 | 95 | -0.8 | -13
40 | 102 | 1.1 | -1
41 | 99 | · | 3
42 | 106 | -1.9 | 2
43 | 95 | -2.3 | -9
44 | 94 | · | ·
45 | 101 | 0.4 | -2
46 | 112 | 0.2 | -13
47 | 103 | -2.0 | 27
48 | 99 | · | 1

# Going on with the list:
item | molecule | HSV augment | HSV augment primary fold | Insulin prom inh | Insulin prom inh cell count
49 | COc1ccc(/C=N/NC(=O)c2ccc(Br)o2)cc1Cn1cc([N+](=O)[O-])cn1 | i | 0.98 | 0 | 111
50 | CCn1cc(Br)c(C(=O)N(C)Cc2ccccc2)n1 | i | 0.98 | -95 | 105
51 | CCOC(=O)c1c(C(C#N)C#N)cc(C)nc1C | i | 0.98 | · | ·
52 | CCOCCCNC(=O)c1ccc(Br)cc1 | i | 0.96 | -54 | 150
53 | CC(=O)CCc1oc2ccc(C)cc2c1-c1ccccc1 | i | 1 | · | ·
54 | O=C(NCCN1CCOCC1)C(=O)NCC1OCCN1C(=O)c1ccc(Cl)cc1 (configuration not stated) | i | 0.97 | 38 | 56
55 | O=C(CCNC(=O)c1ccccc1)N=Nc1c(O)[nH]c2ccccc12 | i | 0.94 | · | ·
56 | O=C(COC(=O)C(Cc1ccccc1)NC(=O)c1ccccc1)c1ccccc1 (configuration not stated) | i | 0.9 | 5 | 110
57 | O=C(CCC(=O)N/N=C/c1ccc(Br)s1)NCc1ccccc1 | i | 0.83 | 14 | 106
58 | O=c1[nH]c(=O)n([C@H]2C[C@H](O)[C@@H](CO)O2)cc1F | i | 0.65 | -24 | 26
59 | CC(C)CC(C(=O)NCC1CCCO1)N(C(=O)Cn1nnc(-c2ccc(F)cc2)n1)c1ccccc1F (configuration not stated) | i | 0.86 | -10 | 109
60 | COc1cc(C(=O)NCc2ccc(-c3nc4ccccc4o3)cc2)cc(OC)c1OC | i | 0.87 | 18 | 76

item | RGS16-Gao HTS | GALR2 agonist | PKD1 inh
49 | 109 | -1.6 | -6
50 | 100 | -1.8 | -5
51 | 106 | -2.5 | 6
52 | 124 | -1.2 | -5
53 | 108 | · | ·
54 | · | -2.1 | -4
55 | 103 | · | -4
56 | 104 | -0.2 | -7
57 | 110 | -0.2 | -13
58 | 98 | -0.1 | -7
59 | 103 | -1.2 | -3
60 | 106 | 1.2 | -6

# Additional results:
item | molecule | HSV augment | HSV augment primary fold | Insulin prom inh | Insulin prom inh cell count
61 | Cc1nc(CN(C)C(=O)c2cc(COc3ccc4ncccc4c3)on2)cs1 | i | 0.97 | · | ·
62 | Cc1[nH]c2ccc(Br)cc2c(=O)c1CN1CCCCC1 | i | 0.75 | 36 | 63
63 | COc1cccc(Cn2nnc(C(=O)NCc3ccc4c(c3)OCO4)c2N)c1 | i | 1 | -15 | 93
64 | Nc1nc(-c2ccco2)nn1S(=O)(=O)c1ccccc1 | i | 0.94 | 7 | 86
65 | COc1ccc(-c2nsc3c(N4CCCCC4C)ncnc23)cc1 (configuration not stated) | i | 1 | · | ·

item | RGS16-Gao HTS | GALR2 agonist | PKD1 inh
61 | 100 | · | -1
62 | 114 | -2.8 | -10
63 | 96 | · | -3
64 | 97 | · | 0
65 | 91 | · | -3

# Molecules shown so far that have an NH in an aromatic ring, in the order listed:
item | molecule | HSV augment | HSV augment primary fold | Insulin prom inh | Insulin prom inh cell count
4 | COc1ccc(NC(=O)N(Cc2cccs2)Cc2cc3cc4c(cc3[nH]c2=O)OCO4)cc1 | i | 0.99 | 21 | 63
38 | Cc1cc(C)cc(Nc2ncnc3nc[nH]c23)c1 | i | 0.72 | · | ·
39 | Cc1n[nH]c(=S)c2nn(-c3cccc(Cl)c3)c(C)c12 | · | · | · | ·
42 | N#Cc1c(C(F)(F)F)cc(C2CC2)[nH]c1=O | i | 0.87 | 0 | 150
48 | C#CCOCCOCCOCCNc1nc(N2CCN(C(=O)[C@H](CCC(=O)O)n3cc(C(N)Cc4ccc(O)cc4)nn3)CC2)nc(N2CCN(C(=O)[C@H](Cc3cc4ccccc4[nH]3)n3cc(C(N)CC(C)C)nn3)CC2)n1 (some centres not stated) | · | · | · | ·
55 | O=C(CCNC(=O)c1ccccc1)N=Nc1c(O)[nH]c2ccccc12 | i | 0.94 | · | ·
58 | O=c1[nH]c(=O)n([C@H]2C[C@H](O)[C@@H](CO)O2)cc1F | i | 0.65 | -24 | 26
62 | Cc1[nH]c2ccc(Br)cc2c(=O)c1CN1CCCCC1 | i | 0.75 | 36 | 63

item | RGS16-Gao HTS | GALR2 agonist | PKD1 inh
4 | 100 | 0.9 | 1
38 | 103 | · | ·
39 | 95 | -0.8 | -13
42 | 106 | -1.9 | 2
48 | 99 | · | 1
55 | 103 | · | -4
58 | 98 | -0.1 | -7
62 | 114 | -2.8 | -10
